HSV replic up – HSV replication enhancement. HSV replication augmentation in cells, fold increase. maximum fold increase. actives 0.005% (n = 220,000);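 active means peak rise of 1.5-fold or more in the series; inconclusive means self-fluorescent or not available for retest; tested in PC3 cells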;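 further: first round at 10 µM; read as green reporter fluorescence; hits show the peak of a series up to 25 µM; 1 = signal of infected wells without compound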
PKD1 kinase inh – inhibitors of human PKD1 kinase. AID 797. PKD1 kinase fluorescence polarization assay. Q15139. inhibition, %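 (about 10 µM by stock and volumes)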. actives 0.056% (n = 200,000);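 active means inhibition of 50% or more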;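 further: controls were vehicle for no effect and a reference inhibitor for full effect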
GALR2 agonist – GALR2 (human) receptor agonism; GALR2-expressing cells, agonist activation read-out; activation, %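 (tested at 5 µM)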; O43603; actives 0.48% (n = 140,000);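 active means above mean plus 3 SD of all compounds, about 5% in these data, not always enough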;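 further: 0% = vehicle buffer wells and 100% = reference agonist at full effect; tested in CHO reporter cells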
Target sequence (O43603 whole entry, looked up): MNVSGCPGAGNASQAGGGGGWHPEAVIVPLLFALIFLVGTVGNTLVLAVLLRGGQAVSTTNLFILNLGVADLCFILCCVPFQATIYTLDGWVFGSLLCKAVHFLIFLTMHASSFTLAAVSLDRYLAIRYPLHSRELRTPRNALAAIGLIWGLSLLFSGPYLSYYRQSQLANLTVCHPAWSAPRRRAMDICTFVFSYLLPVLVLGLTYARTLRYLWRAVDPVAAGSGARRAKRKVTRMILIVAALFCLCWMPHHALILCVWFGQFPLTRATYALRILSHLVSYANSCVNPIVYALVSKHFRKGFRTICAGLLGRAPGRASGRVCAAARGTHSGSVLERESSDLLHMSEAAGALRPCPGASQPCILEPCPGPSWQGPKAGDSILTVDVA
INS promoter inh – TRM-6 insulin promoter activity inhibition. TRM-6 cells (human fetal islet line), insulin promoter-eGFP reporter, imaging; reporter expression induced with tamoxifen. inhibition, % at 2 µM. AID 1273. actives 0.9% (n = 130,000);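 active means inhibition above the mean plus 3 SD, with well images judged a real hit on visual review, cut at about 60% in these data, passing the limit was not always enough; inconclusive means inhibition over the cutoff but images rejected on review; inactive means inhibition not above the cutoff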
RGS16-Gao – RGS16-Galphao interaction regulator (human); actives 0.38% (n = 220,000); bead-based flow cytometry RGS16-Galphao binding, fluorescence; actives lie on both sides; binding response (% of control), % at 10 µM;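 active means below 25% or above 175%, edge rows of some plates excepted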;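 further: Galphao activated by GDP with aluminum fluoride before binding; 100% = wells without compound and 0% = beads without RGS; some results beyond the cut were filed as inactive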
Target sequence (O15492 whole entry, looked up): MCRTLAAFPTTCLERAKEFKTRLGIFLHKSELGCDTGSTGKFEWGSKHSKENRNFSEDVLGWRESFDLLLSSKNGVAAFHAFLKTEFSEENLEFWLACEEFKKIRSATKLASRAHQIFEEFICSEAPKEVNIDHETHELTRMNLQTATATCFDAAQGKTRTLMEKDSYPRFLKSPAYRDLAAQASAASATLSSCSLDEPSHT
Target sequence (P09471 whole entry, looked up): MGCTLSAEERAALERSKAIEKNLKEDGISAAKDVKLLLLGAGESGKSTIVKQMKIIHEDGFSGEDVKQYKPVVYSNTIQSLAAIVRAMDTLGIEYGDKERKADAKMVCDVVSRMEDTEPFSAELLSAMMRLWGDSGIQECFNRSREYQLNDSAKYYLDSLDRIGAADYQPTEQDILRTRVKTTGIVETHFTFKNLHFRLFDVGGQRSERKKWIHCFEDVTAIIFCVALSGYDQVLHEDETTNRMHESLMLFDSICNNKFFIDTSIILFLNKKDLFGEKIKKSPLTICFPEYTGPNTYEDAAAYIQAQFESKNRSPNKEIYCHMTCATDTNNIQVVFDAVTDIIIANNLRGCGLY
INS promoter inh cell count – further read-out of INS promoter inh, marked with its call; normalized cell count, %; measured here: cell count, toxicity; reference of the scale not given here;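 cells exposed to compound for 48 h; stained nuclei by imaging scaled within each plate; lower means fewer cells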
HSV replic up primary fold – second read-out of HSV replic up, no call of its own (marks repeat the call); fold increase; compound at 10 µM; measured here: primary screen fold increase 10 uM; tested in PC3 cells;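 GFP signal in the first replicate; 1 = infected wells without compound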
* hit, by the source's call; i = inactive; ? = inconclusive; nt = no result given; & = joins results of further samples.

smiles | HSV replic up | PKD1 kinase inh | INS promoter inh cell count | INS promoter inh | GALR2 agonist | RGS16-Gao | HSV replic up primary fold
CCOC(=O)CSc1nnc(CSc2nc3sc4c(c3c(=O)[nH]2)CCC4)n1-c1ccccc1 | i | 3 | 66 | -14 | 0.3 | 100 | 0.87
N=c1n(CCO)c2ccccc2n1Cc1ccccc1Cl | i | -8 | 112 | 0 | -2.5 | 102 | 0.84
CC(=O)NCC(=O)N(c1c(C)n(C)n(-c2ccccc2)c1=O)C1(C(=O)NC2CCCC2)CCCCC1 | nt | -3 | 111 | 30 | -2.1 | 102 | nt
OC(CNCCc1ccc(C(F)(F)F)cc1)COc1cccc2ccccc12 (stereo not drawn) | i | 17 | 107 | -9 | 1.5 | 95 | 0.71
CCOC(=O)C1(Cc2ccccc2)CCN(Cc2ccon2)CC1 | i | -2 | 102 | -7 | nt | 102 | 0.96
CC1CCCN(c2nc3c(c(=O)n(C)c(=O)n3C)n2CCSc2nc3ccccc3s2)C1 (stereo not drawn) | i | 0 | nt | nt | -0.7 | 94 | 0.78
CCOc1ccccc1Nc1nc2ccccc2n1C(C)C | i | -5 | 97 | 0 | nt | 97 | 0.93
C=CCNC(=O)c1c(CSc2ccccc2)noc1C(=O)NCc1ccccc1 | i | nt | nt | nt | nt | 104 | 0.8
CCNC(=S)N1CCc2cc(OC)c(OC)cc2C1COc1ccccc1OC (stereo not drawn) | i | -5 | nt | nt | nt | 100 | 0.87
CCCCN(Cc1cc2ccccc2[nH]c1=O)S(C)(=O)=O | i | -8 | 95 | -29 | -2.3 | 97 | 0.98
Cc1cc(NC(=O)C2CC2)ncc1NC(=O)C12CC3CC(CC(C3)C1)C2 | i | -5 | nt | nt | -3.4 | 100 | 0.86
c1cncc(-c2nc3ccccc3[nH]2)c1 | i | 8 | nt | nt | -1.6 | 102&101 | 1.3
CCOC(=O)C1CCCN(C(=O)c2ccc3c(c2)NC(=O)C(N2CCOCC2)S3)C1 (stereo not drawn) | i | -6 | 95 | -100 | -3.5 | 96 | 0.87
O=C(c1ccc(Cl)cc1)N1C2C=CC(C2)C1(C(F)(F)F)C(F)(F)F (stereo not drawn) | i | -8 | 67 | -36 | -0.9 | 96 | 1
COc1ccc(Cl)cc1C(=O)NNC(=S)NC(=O)/C=C/c1ccco1 | i | -10 | 67 | 55 | nt | 119 | 1.2
COc1ccccc1C1=NC(c2ccc(C)cc2)N=C1C (stereo not drawn) | i | 4 | nt | nt | nt | 105 | 0.96
COc1ccc(C(C)=O)cc1COC(=O)c1cccnc1SC | i | -7 | nt | nt | nt | 100 | 0.94
CCOC(=O)CNC(=O)CSc1nc2cccnc2n1Cc1ccccc1 | i | -13 | nt | nt | -1.3 | 113 | 0.98
CCCCCCOC(=O)CCc1c(C)nc(N)[nH]c1=O | i | 1 | 50 | -3 | -1.4 | 91 | 1
C=CCOn1c(C)c(C(C)=O)c2c3no[n+]([O-])c3ccc21 | i | -7 | 61 | -35 | -1.8 | 107 | 0.78
O=C(NCc1ccco1)/C(=C/c1ccco1)NC(=O)c1ccc(Br)o1 | i | 5 | 110 | -14 | 0.6 | 103 | 1.1
CC(C)(C)C(=O)Nc1ncccc1C(O)c1cccc(C(F)(F)F)c1 (stereo not drawn) | i | 0 | nt | nt | nt | 97 | 0.93
C[C@H](NC(=O)c1nc[nH]c1C(=O)NC1CCN(C(=O)OC(C)(C)C)CC1)C(=O)OCc1ccccc1 | i | 12 | nt | nt | nt | 107 | 0.79
O=c1n(Cc2ccccc2Cl)nc2n1-c1ccccc1SC2 | i | nt | nt | nt | nt | 100 | 1.1
CC1CCN(c2nc(Cl)nc(Nc3ccc([N+](=O)[O-])cc3)n2)CC1 | i | 9 | 119 | -12 | -0.9 | 99 | 0.98
O=C(COc1ccc([N+](=O)[O-])cc1)Nn1cnnc1 | i | -3 | 107 | -100 | nt | 103 | 1.1
O=C(Nc1ccc2nsnc2c1)NC1CCCCC1 | nt | -5 | 79 | 44 | -0.5 | 100 | nt
Cc1cc([N+](=O)[O-])nn1CC(=O)Nc1cnc2ccccc2c1 | i | -2 | 121 | -48 | nt | 98 | 0.91
Cc1ccc(-c2csc(N3CCC(NS(=O)(=O)c4ccc5c(c4)OCCO5)CC3)n2)cc1 | i | -18 | nt | nt | -2.5 | 100 | 0.88
O=C(CN1C(=O)NC2(CCCCCC2)C1=O)N1CCC(Cc2ccccc2)CC1 | i | -5 | 78 | 16 | -2.1 | 76 | 0.72
CC(C)CCNC(=O)C1CC(=O)N(C2CCCC2)C1 (stereo not drawn) | i | -10 | 92 | 17 | -1.4 | 98 | 1
O=C1C2CCCN2C(c2ccccc2)N1c1nccs1 (stereo not drawn) | i | -18 | nt | nt | -0.8 | 109 | 0.89
OCCNCCOc1ccccc1F | i | -2 | 103 | 0 | -1.7 | 98 | 0.88
O=C(Oc1ccc2[nH]cc(CCN3C(=O)c4ccccc4C3=O)c2c1)c1ccco1 | i | -7 | 145 | 25 | -2.5 | 101 | 0.88
CC(=O)NS(=O)(=O)c1ccc(NC(=O)CC(C)c2ccccc2)cc1 (stereo not drawn) | i | 10 | nt | nt | nt | 104 | 0.71
N#Cc1ccsc1NC(=O)CN1CCN(c2ccccc2O)CC1 | i | 9 | 135 | 10 | -0.9 | 102 | 1
CCOc1nc(NCCN2CCOCC2)nc(Nc2ccc(C)cc2)n1 | i | -6 | 79 | -19 | -0.9 | 101 | 0.85
COc1ccc(-c2[nH]ncc2CN2CCC(C(=O)c3ccc(F)cc3)CC2)cc1 | i | nt | nt | nt | nt | 94 | 0.86
S=c1nc(Cc2ccc(Cl)cc2)[nH]c2ccccc12 | i | -10 | 57 | -174 | nt | 97 | 0.86
CCn1c(SCC(=O)NCc2ccco2)nnc1-c1ccncc1 | i | -9 | 93 | -25 | nt | 106 | 1

Not a retest: entries from further up.
smiles | HSV replic up | PKD1 kinase inh | INS promoter inh cell count | INS promoter inh | GALR2 agonist | RGS16-Gao | HSV replic up primary fold
S=c1nc(Cc2ccc(Cl)cc2)[nH]c2ccccc12 | i | -10 | 57 | -174 | nt | 97 | 0.86
CCn1c(SCC(=O)NCc2ccco2)nnc1-c1ccncc1 | i | -9 | 93 | -25 | nt | 106 | 1

Carrying on.
smiles | HSV replic up | PKD1 kinase inh | INS promoter inh cell count | INS promoter inh | GALR2 agonist | RGS16-Gao | HSV replic up primary fold
N#C/C(=C(/O)c1cccc(F)c1)c1nc2ccccc2s1 | i | nt | nt | nt | nt | 95 | 0.89
Cc1ccc(NC(=O)CNC(=O)c2ccccc2F)cc1Cl | i | 10 | 94 | 8 | -2.3 | 102 | 0.85
O=C(c1ccc(F)cc1)c1cnc(Nc2ccccc2)s1 | i | 3 | nt | nt | nt | 106 | 0.99
O=C(CSc1nnc(-c2cccs2)n1-c1ccccc1)N1CCc2ccccc21 | nt | 2 | 132 | 58 | -1.0 | nt | nt
N=C1CCCN1CC(=O)c1cccs1 | i | 2 | 139 | 14 | nt | 100 | 0.95
CC(C)c1cc(-c2cc(-c3ccccc3)on2)nc(NC2CCCC2)n1 | i | nt | nt | nt | nt | 95 | 0.77
O=C(Nc1cccc(C(F)(F)F)c1)c1cccnc1N1CCOCC1 | i | -2 | 140 | -93 | -0.7 | 101 | 1
O=C(/C=C/Nc1ccc(Nc2ccccc2)cc1)c1cccs1 | i | -4 | nt | nt | nt | 102 | 1.2
Cc1ccc(C(=O)NC(C)c2ccc(F)cc2)cc1 (stereo not drawn) | nt | -2 | nt | nt | -1.3 | 105 | nt
CCN(CCCn1c(=S)[nH]c2ncccc2c1=O)c1ccccc1 | i | -4 | 64 | -30 | -2.2 | 100 | 0.96
Fc1cnc(N/N=C/c2ccc(-c3ccc(Br)cc3)o2)nc1N1CCOCC1 | i | nt | nt | nt | nt | 103 | 0.87
CCC(CC)C(=O)c1c[nH]c(C(=O)NCCc2ccccn2)c1 | i | -6 | nt | nt | -0.3 | 103 | 0.97
CCn1c(N2CCN(C(=O)C34CC5CC(CC(C5)C3)C4)CC2)nc2ccccc21 | i | -9 | 84 | -100 | 0.5 | 99 | 0.99
Cc1ccc(Cn2cc(SCC(=O)Nc3nccs3)c3ccccc32)cc1 | i | 3 | nt | nt | -2.3 | 97 | 0.99
O=C(Nc1ccc(Br)cc1)c1csc(-c2ccncc2)n1 | i | 1 | nt | nt | nt | 99 | 0.97
CN1C(=O)c2cccc(NC(=O)Cc3ccccc3)c2C1=O | i | 1 | nt | nt | -2.7 | 103 | 0.92
Cc1nc(Oc2ccccc2)c2oc3ccccc3c2n1 | i | -1 | 106 | 29 | -1.3 | 107 | 0.83
CCc1c(C)nc2ncnn2c1Nc1ccc(C)c(C)c1 | i | -5 | 90 | 37 | -1.8 | 100 | 0.96
Cc1csc2ncc(C(=O)Nc3ccccc3Cl)c(=O)n12 | i | 0 | nt | nt | nt | 98 | 0.92
O=c1cc(N2CCC3(CC2)OCCO3)[nH]c(=O)n1C1CCCCC1 | i | -2 | 73 | 25 | -1.6 | 102 | 0.98

One compound at a time, from the list above:
`CCc1c(C)nc2ncnn2c1Nc1ccc(C)c(C)c1` is listed with HSV replic up = i; PKD1 kinase inh = -5; INS promoter inh cell count = 90; INS promoter inh = 37; GALR2 agonist = -1.8; RGS16-Gao = 100; HSV replic up primary fold = 0.96
`CCn1c(N2CCN(C(=O)C34CC5CC(CC(C5)C3)C4)CC2)nc2ccccc21` is listed with HSV replic up = i; PKD1 kinase inh = -9; INS promoter inh cell count = 84; INS promoter inh = -100; GALR2 agonist = 0.5; RGS16-Gao = 99; HSV replic up primary fold = 0.99

(list continues)
smiles | HSV replic up | PKD1 kinase inh | INS promoter inh cell count | INS promoter inh | GALR2 agonist | RGS16-Gao | HSV replic up primary fold
Cc1ccc(C2CC2c2n[nH]c(=S)n2-c2ccc(Cl)cc2)cc1 (stereo not drawn) | i | -8 | 95 | -11 | 3.8 | 103 | 0.79
CCOCCCNC(=O)C(NC(=O)c1cnccn1)c1ccc(C)cc1 (stereo not drawn) | i | -3 | 110 | -23 | -2.0 | 101 | 0.96
O=C(CCC(=O)N1CCN(S(=O)(=O)c2ccc(Cl)cc2)CC1)Nc1ccc2ccccc2c1 | i | -6 | 101 | 9 | -1.5 | 103 | 0.83
CCOC(=O)/C(=N\Nc1ccc(OC)cc1)c1csc(Nc2ccccc2)n1 | i | 5 | 116 | 40 | -1.3 | 98 | 0.75
O=C(O)c1[nH]c2ccccc2c1CC(=O)N1CCN(c2ccccc2)CC1 | i | -9 | nt | nt | nt | 102 | 1
Cc1nnc(NC(=O)c2sc3nc(-c4cccs4)cc(C(F)(F)F)c3c2N)s1 | ? | -4 | 64 | -107 | -0.2 | 103 | nt
COC(=O)c1ccc(NC(=O)COc2ccc([N+](=O)[O-])cc2)cc1 | i | nt | nt | nt | nt | 101 | 0.97
CSc1nnc([C@H](Cc2c[nH]c3ccccc23)NC(=O)OC(C)(C)C)o1 | i | nt | nt | nt | nt | 106 | 0.95
CCCCN(C(=O)Cn1nnc2ccccc21)C(C(=O)NCCOC)c1cccs1 (stereo not drawn) | i | -4 | 42 | -200 | -1.4 | 107 | 0.94
CCOCCCNCC(=O)Nc1ccc(S(=O)(=O)NC(C)CC)cc1 (stereo not drawn) | i | -9 | nt | nt | nt | 92 | 0.97
CSCCC(NC(=O)c1ccc(Cl)cc1)C(=O)OCC(=O)c1ccc[nH]1 (stereo not drawn) | i | 10 | nt | nt | 0.9 | 104 | 1.1
CCCOc1ccc(C2C(C(=O)c3ccco3)=C(O)C(=O)N2CCN2CCOCC2)cc1OC (stereo not drawn) | nt | -7 | 90 | -6 | -2.8 | 99 | nt
O=C(COC(=O)c1c(Cl)ccc(Cl)c1Cl)NC(=O)NCc1ccccc1 | i | 4 | 70 | -5 | 0.5 | 108 | 1.1
COc1ccc(CCN=C(N)NS(=O)(=O)c2ccc(F)cc2)cc1 | i | 2 | nt | nt | nt | 86 | 1.1
Cc1ccc(N2CN=c3s/c(=C\c4cccnc4)c(=O)n3C2)cc1 | i | 7 | 56 | 27 | -0.2 | 80 | 0.86
COCCn1c(SCc2nc3sc(C(=O)OC)c(C)c3c(=O)[nH]2)nc2ccccc21 | i | -2 | 85 | 0 | 1.5 | 95 | 1
Cc1ccc2c(c1)NC(=O)C(CC(=O)NC1CCCCC1C)O2 (stereo not drawn) | i | -1 | nt | nt | -2.7 | 105 | 1
CC(C)c1nc2sc3c(=O)[nH]cnc3c2c2c1CCCC2 | i | nt | nt | nt | nt | 90 | 0.96
Cc1ccc2c(c1)N(CCCC(=O)NCCCN1CCCC1=O)C(=O)CO2 | nt | 0 | 90 | 45 | -2.1 | 115 | nt
